Source: PubChem
Vaccinia inh: blocks a specific stage of Vaccinia orthopoxvirus infection, primary screen, cell-based, single point | Vaccinia-infected cells, mCherry/Venus stage reporter fluorescence; hits give low values; some inactives read as strong as hits | AID 1053133, 2014 | 89,000 tested, 0.01% active | activity change (mCherry), % (test concentration not listed);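 active = mCherry past -33% and 40 or more points under the early reporter, replicates agreeing; inconclusive = past -33% without that gap or agreement; tested in A549 cells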;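 note: scaled between vehicle wells and reference inhibitor wells; 23 nL library stock went into each well; one replicate is shown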
Vaccinia inh Venus: further read-out of Vaccinia inh, marked with its call; activity change (Venus), %; measured here: Venus reporter, other viral stage;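 negative = less Venus signal; first of two replicates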
An asterisk follows results filed as active; ? = inconclusive; . = no result given. A portion of the library; rates above refer to the full screens.

structure,Vaccinia inh,Vaccinia inh Venus
CS(=O)(=O)Nc1ccc2c(c1)[C@H]1C[C@H](CC(=O)NCc3ccc(Cl)cc3)O[C@@H](CO)[C@H]1O2,10,8
C[C@H]1CN([C@@H](C)CO)C(=O)c2c(c3ccccc3n2C)-c2ccccc2CO[C@H]1CN(C)S(=O)(=O)c1ccc(C#N)cc1,?,.
CC(C)C#Cc1cnc2c(c1)C(=O)N([C@@H](C)CO)C[C@@H](C)[C@@H](CN(C)Cc1cncnc1)O2,5,5
Cc1ccc(S(=O)(=O)N2CC[C@H]3[C@H](CO)Nc4ccc(-c5ccc(C#N)cc5)cc4[C@H]32)cc1,-29,-11
COc1ccccc1NC(=O)N1CCCCN2[C@H](C1)[C@@H](c1ccc(-c3ccccc3)cc1)[C@@H]2CO,-28,-24
C[C@H]1CN([C@@H](C)CO)C(=O)c2cc(NS(=O)(=O)c3ccc(F)cc3)ccc2O[C@@H]1CN(C)C,6,7
C[C@H]1CN([C@@H](C)CO)C(=O)c2cc(NC(=O)CCCN(C)C)ccc2O[C@@H]1CN(C)C(=O)Nc1ccccc1,6,6
COc1ccc(NC(=O)N2CCCCN3[C@H](C2)[C@H](c2ccc(C4=CCCCC4)cc2)[C@@H]3CO)cc1,-24,-40
CO[C@H](CN(C)C(=O)c1ccccc1F)[C@H](C)CN([C@@H](C)CO)S(=O)(=O)c1ccc(Cl)cc1,1,1
CCNC(=O)[C@@H]1[C@@H](CO)[C@@H]2Cn3c(ccc(-c4ccccc4OC)c3=O)[C@@H]2N1S(C)(=O)=O,0,5
C[C@H]1CN([C@@H](C)CO)C(=O)c2cc(NC(=O)CCCN(C)C)ccc2O[C@H]1CN(C)Cc1ccc(C(=O)O)cc1,18,7
O=C(C[C@H]1C[C@@H]2c3cc(NC(=O)Nc4ccccc4)ccc3O[C@@H]2[C@H](CO)O1)NCc1cccc(F)c1,15,6
O=S(=O)(c1cccs1)N1CCCCN2[C@@H](CO)[C@@H](c3ccc(Br)cc3)[C@@H]2C1,-15,-24
CC(C)NC(=O)N(C)C[C@H]1Oc2cc(C#C[C@@H](C)O)ccc2S(=O)(=O)N([C@H](C)CO)C[C@@H]1C,27,7
C[C@H]1CN([C@@H](C)CO)C(=O)c2cc(N(C)C)ccc2O[C@H]1CN(C)Cc1ccc(Oc2ccccc2)cc1,-21,-17
COc1ccccc1C(=O)Nc1ccc2c(c1)C(=O)N(C)C[C@@H](OC)[C@H](C)CN(C)[C@@H](C)CO2,0,2
C[C@H](CO)N1C[C@H](C)[C@@H](CN(C)C(=O)Cc2cccnc2)Oc2ncc(-c3cncnc3)cc2C1=O,22,0
O=S(=O)(N[C@H]1CC[C@H](CCn2cc(-c3cccnc3)nn2)O[C@@H]1CO)c1ccccc1,15,3
N#C[C@H]1[C@@H](c2ccccc2-c2cccc(F)c2)[C@H](CO)N1S(=O)(=O)c1cccc(F)c1,-27,-19
O=S(=O)(N[C@@H]1CC[C@H](CCn2cc(-c3cccnc3)nn2)O[C@@H]1CO)c1ccc(Cl)cc1,-8,-7
CCC(=O)N(C)C[C@@H]1Oc2cc(C#CCC(C)C)ccc2S(=O)(=O)N([C@@H](C)CO)C[C@H]1C,11,-3
Cc1noc(C)c1NC(=O)N(C)C[C@@H]1Oc2ccc(N(C)C)cc2C(=O)N([C@@H](C)CO)C[C@H]1C,-2,0
C[C@@H]1CN([C@H](C)CO)C(=O)c2cc(NC(=O)Nc3ccccc3)ccc2O[C@@H](C)CCCCO[C@@H]1CN(C)C,22,17
C[C@@H]1CN([C@H](C)CO)S(=O)(=O)c2ccc(-c3ccc(C(=O)N(C)C)cc3)cc2O[C@H]1CN(C)C(=O)C1CCOCC1,22,11
COc1ccc(-c2ccc3n(c2=O)C[C@@H]2[C@@H](CO)[C@H](C(=O)N4CCN(C)CC4)N[C@H]32)cc1,2,-4
C[C@@H]1CN([C@@H](C)CO)C(=O)c2cc(NS(=O)(=O)c3ccccc3)ccc2O[C@H]1CN(C)CC1CCCCC1,-1,4
COc1cccc(NC(=O)N(C)C[C@H]2Oc3ncc(/C=C/c4ccccc4)cc3C(=O)N([C@@H](C)CO)C[C@@H]2C)c1,?,.
Cc1ccc(S(=O)(=O)N2C[C@@H](O)COC[C@@H]3O[C@H](CC(=O)NCCCN(C)C)CC[C@H]32)cc1,11,13
Cc1ccccc1S(=O)(=O)NCC[C@H]1CC[C@@H](NS(=O)(=O)c2ccccc2C)[C@@H](CO)O1,-13,-8
C[C@@H]1CN([C@@H](C)CO)C(=O)Cc2cc(NC(=O)C3CCCCC3)ccc2O[C@@H]1CN(C)C(=O)Nc1ccc2c(c1)OCO2,6,3
CO[C@H]1CN(C)C(=O)c2cc(NC(=O)NC(C)C)ccc2OC[C@@H](C)N(Cc2ccccc2)C[C@@H]1C,-17,-8
C[C@H](CO)N1C[C@H](C)[C@@H](CN(C)C(=O)c2ccc(N3CCN(C)CC3)cc2)OCc2cn(nn2)CCCC1=O,13,13
O=C(C[C@@H]1C[C@H]2c3cc(NC(=O)CC4CC4)ccc3O[C@H]2[C@@H](CO)O1)NCc1ccncc1,9,2
COc1ccc(S(=O)(=O)Nc2ccc3c(c2)C(=O)N([C@@H](C)CO)C[C@H](C)[C@@H](CN(C)C(=O)c2ccccc2)OCCCC[C@@H](C)O3)cc1,-22,-20
O=S(=O)(Cc1ccccc1)N1CCCCN2[C@H](CO)[C@H](c3ccc(-c4cncnc4)cc3)[C@H]2C1,-1,-16
COc1ccccc1-c1ccc([C@H]2[C@H](CO)N[C@@H]2C#N)cc1,-27,-23
C[C@H]1CN([C@@H](C)CO)C(=O)c2cc(NC(=O)Cc3cn(C)c4ccccc34)ccc2O[C@@H]1CN(C)C(=O)Nc1cccc2ccccc12,13,8
CO[C@@H]1CN(C)C(=O)c2ccc(NC(=O)NC3CCCCC3)cc2OC[C@@H](C)N(C)C[C@H]1C,-10,-8
C[C@H](CO)N1C[C@H](C)[C@H](CN(C)C(=O)Cc2cccnc2)Oc2ncc(C#Cc3ccccc3F)cc2C1=O,-21,-17
Cc1noc(C)c1S(=O)(=O)N(C)C[C@H]1Oc2c(NC(=O)C3CC3)cccc2C(=O)N([C@H](C)CO)C[C@H]1C,6,7
Cc1ccc(S(=O)(=O)N(C)C[C@@H]2Oc3c(NC(=O)c4cc(C)nn4C)cccc3C(=O)N([C@@H](C)CO)C[C@@H]2C)cc1,23,21
O=C(CCN1CCCCC1)N[C@H]1C=C[C@@H](CC(=O)N2CCC(Cc3ccccc3)CC2)O[C@@H]1CO,-7,4
Cc1noc(C)c1S(=O)(=O)Nc1ccc2c(c1)C(=O)N([C@@H](C)CO)C[C@H](C)[C@H](CN(C)C)O2,10,-1
CN1C(=O)c2cc(NC(=O)C3CCCC3)ccc2OC[C@H]2O[C@H](CC(=O)NCC(F)(F)F)CC[C@H]21,11,13
COc1ccc(S(=O)(=O)N(C)C[C@H]2OCCCC[C@H](C)Oc3ccc(NC(=O)Cc4ccccc4)cc3C(=O)N([C@@H](C)CO)C[C@@H]2C)cc1,-23,-19
CCC(=O)N(C)C[C@@H]1Oc2cc(C#CCOC)ccc2S(=O)(=O)N([C@@H](C)CO)C[C@H]1C,20,11
CCC(=O)N1CC2(C1)[C@@H](c1ccc(C3=CCCC3)cc1)[C@@H](CO)N2C(=O)COC,9,10
CCCNC(=O)N1CC2(CCN(C(=O)c3ccncc3)CC2)c2c([nH]c3cc(OC)ccc23)[C@H]1CO,9,4
COCC(=O)Nc1ccc2c(c1)C(=O)N(C)C[C@@H](OC)[C@@H](C)CN(C(=O)c1ccccc1F)[C@@H](C)CO2,21,10
CC(C)CC#Cc1cnc2c(c1)C(=O)N([C@@H](C)CO)C[C@H](C)[C@@H](CN(C)Cc1ccc(C(=O)O)cc1)O2,6,-5
N#C[C@@H]1[C@H](c2ccccc2C2=CCCC2)[C@H](CO)N1C(=O)C1CCOCC1,9,2
CC=Cc1ccc2n(c1=O)C[C@H]1[C@H](CO)[C@@H](C(=O)NCC)N(Cc3cccc(F)c3)[C@@H]21 (mixture of isomers),5,2
C[C@H](CO)N1C[C@H](C)[C@H](CN(C)CC2CCOCC2)Oc2ncc(C#Cc3ccc(F)cc3)cc2C1=O,?,.
C[C@@H]1CCCCO[C@@H](CN(C)S(=O)(=O)c2ccccc2)[C@H](C)CN([C@@H](C)CO)C(=O)c2cc(NC(=O)Nc3ccccc3)ccc2O1,-6,-4
Cc1noc(C)c1NC(=O)N(C)C[C@@H]1Oc2ccc(NC(=O)Nc3cccc4ccccc34)cc2C(=O)N([C@@H](C)CO)C[C@@H]1C,17,14
CC(C)NC(=O)N(C)C[C@H]1OCCCC[C@H](C)Oc2ccc(NS(=O)(=O)c3ccccc3)cc2C(=O)N([C@H](C)CO)C[C@H]1C,17,12
C[C@H]1CN([C@@H](C)CO)C(=O)c2cc(NC(=O)Nc3cccc4ccccc34)ccc2O[C@@H]1CN(C)CC1CCCCC1,-6,-5
C[C@H](CO)N1C[C@H](C)[C@@H](CN(C)Cc2ccccc2C(=O)O)Oc2cc(-c3ccc(F)cc3)ccc2S1(=O)=O,0,0
O=C(Nc1cc(F)ccc1F)N[C@H]1CC[C@H](CCNC(=O)c2cnccn2)O[C@H]1CO,-3,-1
COc1ccc2c3c([nH]c2c1)[C@H](CO)N(C(=O)c1ccncc1)CC31CN(C(=O)Nc2cccc(F)c2)C1,22,13

Exported as labelled records: entries from further up
C[C@@H]1CCCCO[C@@H](CN(C)S(=O)(=O)c2ccccc2)[C@H](C)CN([C@@H](C)CO)C(=O)c2cc(NC(=O)Nc3ccccc3)ccc2O1
  Vaccinia inh = -6 | Vaccinia inh Venus = -4
Cc1noc(C)c1NC(=O)N(C)C[C@@H]1Oc2ccc(NC(=O)Nc3cccc4ccccc34)cc2C(=O)N([C@@H](C)CO)C[C@@H]1C
  Vaccinia inh = 17 | Vaccinia inh Venus = 14
CC(C)NC(=O)N(C)C[C@H]1OCCCC[C@H](C)Oc2ccc(NS(=O)(=O)c3ccccc3)cc2C(=O)N([C@H](C)CO)C[C@H]1C
  Vaccinia inh = 17 | Vaccinia inh Venus = 12

A draw from above in order of SMILES length, rising:
structure,Vaccinia inh,Vaccinia inh Venus
O=S(=O)(Cc1ccccc1)N1CCCCN2[C@H](CO)[C@H](c3ccc(-c4cncnc4)cc3)[C@H]2C1,-1,-16
CN1C(=O)c2cc(NC(=O)C3CCCC3)ccc2OC[C@H]2O[C@H](CC(=O)NCC(F)(F)F)CC[C@H]21,11,13
COc1ccc(S(=O)(=O)N(C)C[C@H]2OCCCC[C@H](C)Oc3ccc(NC(=O)Cc4ccccc4)cc3C(=O)N([C@@H](C)CO)C[C@@H]2C)cc1,-23,-19

Further structures follow:
structure,Vaccinia inh,Vaccinia inh Venus
COc1ccc(NC(=O)N(C)C[C@H]2OCCCC[C@@H](C)Oc3ccc(NS(=O)(=O)c4ccc(Cl)cc4)cc3C(=O)N([C@@H](C)CO)C[C@H]2C)cc1,-5,-8
CCC(=O)N[C@H]1CC[C@@H](CCNC(=O)Nc2ccc(F)cc2)O[C@H]1CO,6,17
COc1cccc(C#Cc2ccc([C@@H]3[C@@H](CO)N(C(=O)C4CCCC4)[C@H]3C#N)cc2)c1,?,.
N#C[C@H]1[C@H](c2ccccc2-c2ccccc2)[C@@H](CO)N1C(=O)NC1CCCC1,0,-4
Cc1noc(C)c1NC(=O)Nc1ccc2c(c1)CC(=O)N([C@H](C)CO)C[C@@H](C)[C@H](CN(C)Cc1ccccc1)O2,13,12
C[C@@H]1CN([C@H](C)CO)S(=O)(=O)c2ccc(/C=C/c3ccccc3)cc2O[C@@H]1CN(C)C(=O)Nc1ccc(F)cc1,15,-2
C[C@H]1CN([C@@H](C)CO)C(=O)Cc2cc(NC(=O)Cc3cn(C)c4ccccc34)ccc2O[C@H]1CN(C)S(=O)(=O)c1cn(C)cn1,16,14
O=C(Nc1ccccc1F)N[C@@H]1C=C[C@@H](CC(=O)N2CCCCC2)O[C@@H]1CO,-18,-3
CO[C@H]1CN(C)C(=O)c2ccc(NC(=O)Nc3ccccc3F)cc2OC[C@H](C)N(C(C)=O)C[C@H]1C,29,5
C[C@@H]1CN([C@H](C)CO)C(=O)Cc2cc(NC(=O)Nc3cccc4ccccc34)ccc2O[C@@H]1CN(C)C(=O)NC1CCCCC1,20,16
C[C@H]1CN([C@@H](C)CO)C(=O)c2cc(NS(=O)(=O)c3cn(C)cn3)ccc2O[C@H]1CN(C)S(C)(=O)=O,18,6
O=C(Cc1ccncc1)N1CC(=O)N2[C@H](C1)[C@@H](c1ccc(Br)cc1)[C@@H]2CO,13,12
CC(C)NC(=O)Nc1ccc2c(c1)C(=O)N([C@H](C)CO)C[C@@H](C)[C@@H](CN(C)C(=O)Nc1ccc3c(c1)OCO3)O2,30,17
C[C@@H]1CN([C@H](C)CO)C(=O)c2cc(NC(=O)Cc3cn(C)c4ccccc34)ccc2O[C@@H]1CN(C)C(=O)Nc1ccc(C(F)(F)F)cc1,-11,12
CCS(=O)(=O)NCC[C@H]1CC[C@H](NC(=O)Nc2cc(Cl)cc(Cl)c2)[C@H](CO)O1,-2,-2
C[C@H]1CN([C@@H](C)CO)C(=O)Cc2cc(NC(=O)Nc3cccc4ccccc34)ccc2O[C@H]1CN(C)C(=O)NC1CCCCC1,-4,3
C/C=C/c1ccc2c(c1)O[C@H](CN(C)Cc1ccccn1)[C@H](C)CN([C@H](C)CO)S2(=O)=O,-10,-10
CN(C)C(=O)[C@]1(Cc2ccccc2N=[N+]=[N-])N=C(c2ccc(OCCCO)cc2)O[C@@H]1c1ccccc1,0,-1
